NPYLR7 ag = agonists of mosquito NPYLR7 receptor, primary screen, cell-based, Aedes aegypti, calcium fluorescence, mosquito biting behavior | Aedes aegypti neuropeptide Y-like receptor 7 (NPYLR7) | AID 1259423, 2018 | activation, % at 10 µM | hit rate 0.15% among 270,000 | HEK293T NPYLR7/Galpha15, GCaMP6s calcium fluorescence; in the data active means activation above about 40%;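 further: 0% = vehicle and 100% = reference agonist at the receptor; some compounds past the cut are filed as inactive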
NPYLR7 ag max-min = recorded beside NPYLR7 ag, whose call it bears; activation, %; measured here: Max-Min RFU normalised activation; some inactives read as strong as hits;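 span of the calcium signal over five minutes; 0% = vehicle and 100% = native peptide agonist; compound fluorescence can raise it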
Active calls of the source: *; & = joins results of further samples. These rows are one share of the data (hit frequency here may not be typical).

SMILES,NPYLR7 ag,NPYLR7 ag max-min
O=C(Nc1ccnn1CC1CCOC1)C1CC1c1ccc(Cl)cc1 (stereo not given),12,4
CCc1cccc(N(C(=O)c2cccc(S(C)(=O)=O)c2)C2CC3CCC2C3)c1 (stereo not given),6,5
c1cc2nonc2cc1CN1CCCn2cncc2C1,1,2
CC(C)(C)c1cc(CN2CCCC3(C2)C(=O)Nc2ccccc23)[nH]n1 (stereo not given),3,2
CC(C)(C)c1ccc(CC(=O)N2CCC2(C)C(=O)Nc2cccc3c2CCCC3)cc1 (stereo not given),-4,0
Cc1ccccc1CO[C@]1(C(=O)NC(C)C)CC(OCc2ccccc2C#N)[C@H](O)[C@H](O)C1 (stereo not given in full),3,15
CCC(CC)C(=O)NCCCn1nc(-c2ccncc2)ccc1=O,18,13
CC(=O)c1cccc(NC(=O)c2cnn3c(C(F)(F)F)cc(-c4ccc(F)cc4)nc23)c1,-8,-9
Clc1ccc(-c2cnc(CSc3nnnn3C3CCCC3)o2)cc1,6,8
CCOC(=O)N1CCN(Cc2ccc3c(c2)CN(C(=O)CCc2c[nH]c4ccccc24)CCO3)CC1,-5,-9
CCN(CC)c1onc(-c2ccc(F)cc2)c1CN(CCOC)C(=O)Nc1ccc(C)cc1,8,7
CCSc1nc(NC(C)C)c2cnn(CCNC(=O)c3ccc4c(c3)OCO4)c2n1,3,0
O=S1(=O)NC(=NCCc2ccc(F)cc2)c2ccccc21,19,14
Cc1[nH]c(-c2ccccc2)nc1C(=O)NC1CCCN(Cc2ccccn2)C1 (stereo not given),5,5
O=C(CSc1ccc(-c2ccncc2)nn1)Nc1nccs1,4,-5
CC(c1cccs1)N(C)CC(=O)c1c(N)n(C)c(=O)n(C)c1=O (stereo not given),4,2
COCC(C)NC(=O)c1noc(C)c1[N+](=O)[O-] (stereo not given),12,10
CCCCCCCOc1ccc(NC(=O)NCC(=O)N2CCC(C(=O)Nc3ccc(OC)cc3)CC2)cc1,32,36
COc1ccc(C2CC(c3ccc([N+](=O)[O-])cc3)=NN2c2ccccc2)cc1 (stereo not given),-4,-12
CCCc1nc(N2CCCOC(CN3CCOCC3)C2)c2cnn(C)c2n1 (stereo not given),4,-6
COC(=O)NCC(c1ccc2c(c1)OCO2)N1CCN(c2ccccc2)CC1 (stereo not given),-1,-6
CSc1cccc(NC(=O)N2CCCCC2CCn2ccnc2C)c1 (stereo not given),-2,-8
CC1CC1NC(=O)c1ncoc1-c1ccc2c(c1)OCCO2 (stereo not given),-25&2,-25&0
CS(=O)(=O)Cc1cccc(NC(=O)Nc2ccc(C(F)(F)F)cc2)c1,21,20
CCCc1nc(N2CCN(C(=O)C(CC)c3ccccc3)CC2)c2c(-c3cccc(C(F)(F)F)c3)noc2n1 (stereo not given),5,14

In another format: entries from further up.
Sequence of screens: NPYLR7 ag, NPYLR7 ag max-min
CCSc1nc(NC(C)C)c2cnn(CCNC(=O)c3ccc4c(c3)OCO4)c2n1
  3, 0
O=S1(=O)NC(=NCCc2ccc(F)cc2)c2ccccc21
  19, 14

Quoted from the results shown (three entries):
SMILES,NPYLR7 ag,NPYLR7 ag max-min
COCC(C)NC(=O)c1noc(C)c1[N+](=O)[O-] (stereo not given),12,10
CCCCCCCOc1ccc(NC(=O)NCC(=O)N2CCC(C(=O)Nc3ccc(OC)cc3)CC2)cc1,32,36
COc1ccc(C2CC(c3ccc([N+](=O)[O-])cc3)=NN2c2ccccc2)cc1 (stereo not given),-4,-12

Next section
SMILES,NPYLR7 ag,NPYLR7 ag max-min
Cc1ccccc1C(=O)N[C@@H]1CCCCC1NC(=O)C1CCN(C(=O)c2ccc3c(c2)OCO3)CC1 (stereo not given in full),41,32
COc1cccc2cc(-c3nnc(Nc4ccc(Oc5ccc6ccccc6c5Cl)c(Cl)c4)s3)c(=O)oc12,-7,-3
Nc1cc(N)nc(SCc2nnc(-c3cccs3)o2)n1,0,-4
O=C(CSc1nc(Cl)cc(N2CCN(C(=O)C3CC3)CC2)n1)NC1CCN(Cc2ccccc2)CC1,0,12
CC1(C)CN(C(=O)NCCCOCC2CC2)CCS1,3,3
COCCn1nc(C(=O)N2CCC(c3ncc(-c4ccc(F)c(F)c4)[nH]3)CC2)ccc1=O,-9,-13
CCOC(=O)c1nn(-c2ccccc2)c(=O)cc1OS(=O)(=O)c1ccc(C)cc1C,1,6
CC(C)c1nc(-c2ccc3ccccc3n2)n(-c2ccccn2)n1,13,-5
CCCc1[nH]n(-c2cccc(Cl)c2)c(=O)c1C1=C([n+]2cccc(C)c2)C(=O)N(CC(C)C)C1=O,-16,-9
CCOC(=O)c1cccnc1N1CCn2nc(C(=O)N3CCOCC3)cc2C1,3,2
Cc1cccc(-c2cc(N)n(-c3ccc(C(=O)NCCc4cccs4)cc3)n2)c1,-6,-8
O=C(CCc1ccncc1)N1CCOC(CC2CCCCC2)C1 (stereo not given),5,1
CCc1c(-c2csc(N3CCSCC3)n2)[nH]c(C)c1C(C)=O,2,1
CCCNC(=O)c1nn(-c2ccc(C)cc2)c(=O)cc1OC,-9,-8
COc1ccccc1CC1(C)C(=O)Nc2ccc(-c3cccnc3)cc21 (stereo not given),-2,3
O=S(=O)(c1ccc(Cl)cc1)N1CCN(CC(OCc2ccc(C(F)(F)F)cc2)c2ccc(Cl)cc2)CC1 (stereo not given),20,10
O=C(Cc1cn2ccsc2n1)NN=Cc1ccc(N2CCOCC2)s1,0,4
Nc1ccc(S(=O)(=O)c2cccc(N)c2)cc1,9,2
O=C1NC(=Nc2ccccc2)S/C1=C/c1ccc2c(c1)OCO2,18,19
Cc1ccc(-c2nnc(CNC(C)CN3CCc4ccccc4C3)o2)n1C (stereo not given),-1,-3
COC(=O)c1cc2n(n1)CCN(Cc1nc(C(C)C)cs1)C2,13,12
COc1ccc(CCOC(=O)C2CCCCN2C(=O)c2cccnc2Oc2ccccc2)cc1OC (stereo not given),-10,-12
COCCOc1nc(-c2cccc(OC)c2)n(-c2cccc(NC(=O)CC(C)C)c2)n1,26,23
COc1cc2c(cc1CN1CCN(c3cncc(C(N)=O)n3)CC1)CCC2,-5,-7
O=C(c1cncc(N2CCOC(c3ccc(Cl)cc3)C2)n1)N1CCCC1 (stereo not given),3,-3

Four compounds out of the list, sorted by number of heavy atoms, falling.
SMILES,NPYLR7 ag,NPYLR7 ag max-min
CCN(CC)c1onc(-c2ccc(F)cc2)c1CN(CCOC)C(=O)Nc1ccc(C)cc1,8,7
COCCn1nc(C(=O)N2CCC(c3ncc(-c4ccc(F)c(F)c4)[nH]3)CC2)ccc1=O,-9,-13
CC(C)(C)c1ccc(CC(=O)N2CCC2(C)C(=O)Nc2cccc3c2CCCC3)cc1 (stereo not given),-4,0
Nc1ccc(S(=O)(=O)c2cccc(N)c2)cc1,9,2

Next part
SMILES,NPYLR7 ag,NPYLR7 ag max-min
COc1ccc(-c2cn3c(CCC(=O)N4CCN(c5ccccc5)CC4)csc3n2)cc1,4,3
Cc1ccoc1C(=O)N(C)CC(=O)Nc1ccc(F)cc1,2,4
COc1cc(C2C3=C(CC(C)(C)CC3=O)OC(=N)C2C#N)ccc1OCC(N)=O (stereo not given),12,8
CC(C)Oc1ccc(C(C)NC(=O)Cn2[nH]c(=O)ccc2=O)cc1 (stereo not given),9,9
COc1ccccc1NCC(O)COc1cc(Cl)ccc1Cl (stereo not given),3,1
Cn1c(SCC(=O)N2CCCCCCC2)nnc1C1COc2ccccc2O1 (stereo not given),-1,2
Cc1ccn2c(CNC(C)CCCC(C)(C)O)c(C(=O)N3CCCCCC3)nc2c1 (stereo not given),-10,-16
CC(OC(=O)c1cc(Cl)ccc1O)C(=O)NC(N)=O (stereo not given),-1,-2
Cc1ccsc1CNc1cccc(C(=O)N[C@H]2COC[C@@H]2N2CCOCC2)c1,9,6
COc1cccc2c(C)c(C(=O)NCCN3CCN(C)CC3)oc12,7,2
CCOC(=O)[C@H]1CN2CCN(c3ccccn3)C[C@@H]2[C@@H]1c1ccccc1,5,12
COc1ccc(C2CCCN2C(=O)c2ccc3c(c2)OCC(=O)N3)cc1 (stereo not given),2,2
c1cnc(-c2nc(Cn3cnnc3)cs2)nc1,5,0
O=C(Nc1ccccc1I)c1cc(F)cc(F)c1,1,7
COc1nc(-c2ccc(C)cc2)n(-c2ccc(NC(=O)C(Cl)c3ccccc3)cc2)n1 (stereo not given),28,20
Fc1ccc(C2CC(c3ccc(Br)cc3)=Nc3nnnn32)cc1Br (stereo not given),-1,-2
CC(C)NC(=O)N(Cc1ccccc1Cl)CC1CC(c2ccc(Cl)c(Cl)c2)=NO1 (stereo not given),23,34
COc1ccc(-c2cc3c4c(C)n(C)c(C)c4c(C)nn3c2)cc1,-4,-7
COc1cc2cc(C(=O)O)n(C)c2c(OC)c1OC,-1,8
COc1cc(OC)cc(C(=O)N2CCc3ccccc3C2c2ccccc2Cl)c1 (stereo not given),20,13
Cc1nnc(CNC(=O)C2(N(C)CCc3ccccc3)Cc3ccccc3C2)o1,-4,-7
O=C(Nc1ccc(N2CCC(N3CCCN(Cc4ccc(F)cc4)CC3)CC2)cc1)C1CCCC1,27,8
CCOC(=O)c1c(NC(=O)c2ccc(F)cc2)sc(C(=O)Nc2ccccc2OC)c1C,-7,-3
CCC(O)CN1CCN(Cc2cc(F)cc3cccnc23)CC1 (stereo not given),-21,-19
CCn1c(SCc2cc(C)ccc2C)nc2c(c1=O)SCC2,-2,-2
CC(OC(=O)c1ccccc1NCc1ccco1)C(=O)NNC(=O)c1ccccc1 (stereo not given),28,23
CN(C)c1ccc(NC(=O)C2CCCC2)cc1CN(Cc1ccc(F)cc1)S(C)(=O)=O,-6,-2
Cc1cccn2c(NC(C)(C)CC(C)(C)C)c(-c3cccc(OC(=O)c4cccc(Br)c4)c3)nc12,13,16
COCCN(Cc1nc(C(=O)NC(Cc2ccccc2)c2ccccc2)cs1)C(=O)Nc1ccc(Cl)c(Cl)c1 (stereo not given),-3,2
c1ccc(-c2noc(CN3CCCC(c4ccccc4)C3)n2)cc1 (stereo not given),5,1
C=CCN1C(=O)C(=CN(C)C)SC1=NS(=O)(=O)c1cccs1,0,-1
COc1ccc2c(c1)CCCN(C(=O)CCNC(=O)C1CC1C)C2 (stereo not given),-1,-2
CNC(=O)c1ccsc1NC(=O)c1cc(C)no1,6,11
C=CCOC(=O)C1C(C)=Nc2nc(SCC(C)C)[nH]c(=O)c2C1c1ccc(F)cc1 (stereo not given),3,0
Cc1ccccc1Oc1ncccc1CNC(=O)CCC1CCOC1=O (stereo not given),-3,-3
Cc1cccc(N2C(=O)C(c3c(C)[nH]n(-c4ccc(F)cc4)c3=O)=C([n+]3cccc(C)c3)C2=O)c1,-4,1
COC(=O)c1cn(C(=O)CCC2CCCC2)c2ccccc12,3,-1
COc1ccc2oc(=Nc3cccc(/C=C/C(=O)O)c3)c(C(N)=O)cc2c1,-3,-9
O=C(N=Nc1c(O)[nH]c2ccccc12)c1ccc(NC(=O)c2ccc(Cl)cc2)cc1,-4,-2
Cc1nc(SCC#N)c([P+](c2ccccc2)(c2ccccc2)c2ccccc2)c(=O)[nH]1,2,-3
COc1ccc(C(=O)N2C(C(=O)NCc3ccccc3)COC23CCN(C(=O)c2cccc(F)c2)CC3)cc1 (stereo not given),-2,-4
COc1ccc(Cl)cc1NC(=O)CCC1CCCN(C(=O)Cc2nonc2C)C1 (stereo not given),9,4
Cn1ccc(NC(=O)C2CCCCC2)n1,2,2
c1ccc(-c2c3c(nc4ccccc24)CCS3)cc1,4,1
CCOC(=O)C1CCN(C(=O)COc2ccccc2F)CC1,-1,-5
CCC(NC(=O)c1ccc[nH]1)C(=O)N1CCOCC1 (stereo not given),-2,-4
CCc1ccc(NC(=O)c2cccn(OCc3ccc(F)cc3)c2=O)cc1,16,16
CC(=O)N(Cc1cccnc1)c1nc2c(C)cc(C)cc2s1,-10,-7
Cc1ccc(-c2noc(CCN(Cc3ccco3)CC(O)COc3ccccc3C)n2)cc1Cl (stereo not given),7,6
COc1ccc(C(=O)N2CCC3(CC2)C(=O)N(CC(=O)Nc2cccc(Cl)c2)CN3c2ccccc2)cc1,25,26

Additional structures.
SMILES,NPYLR7 ag,NPYLR7 ag max-min
NNc1nc2ccccc2[nH]c1=S,2,1
CCCCN(Cc1cccn1Cc1ccc(Br)cc1)C(=O)CN(CCCOCC)C(=O)COC,4,10
CCCCN(CCCC)C(=O)c1cc2c(=O)n3ccccc3nc2s1,-7,-8
Cc1ccccc1OCc1ccc(-c2nc(C#N)c(NCCN3CCOCC3)o2)o1,1,32
C[C@@]12CO[C@H](c3ccccc3)C[C@@H]1C[C@@H](N1CCN(C(=O)CC3CCCC3)CC1)C2,3,14
COc1ccc(CCN(Cc2cccs2)C(=O)CN(CC2CCCO2)C(=O)Nc2ccc(SC)cc2)cc1OC (stereo not given),15,16
O=C1/C(=C/c2ccncc2)Oc2c1ccc1c2CN(CCc2cccs2)CO1,43,36
Cc1nc2cc(NC(=O)CN3C(=O)NC4(CCC(C)CC4)C3=O)ccc2o1 (stereo not given),1,-2
Cc1nc2c(C)cccn2c(=O)c1NC(=O)c1ccc(C(F)(F)F)cc1,3,2
C1CCN(c2nc(NC3CCCC3)nc3n[nH]nc23)CC1,1,1
O=C(c1cccc(OC(F)F)c1)N1CCOC(COc2cccc(C(F)(F)F)c2)C1 (stereo not given),2,0
Cc1nc(C(=O)N(C)CC2CCCN(CCc3ccc(Cl)cc3)C2)cs1 (stereo not given),-5,-6

Screening data deposited in PubChem by Fisher Drug Discovery Resource Center.
